High-throughput results as filed in PubChem BioAssay.
HIV TAR-Tat – HIV-1 TAR-Tat binding disruption | HIV-1 TAR RNA, Tat peptide displacement FRET; active compounds read high | z-score (no concentration beside the values) | 100,000 tested, 0.6% active;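 note: score is relative to mean and SD of negative controls; some compounds called inactive have numbers as strong as hits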
CDC25B CDK2 inh – human CDC25B-CDK2/CyclinA binding inhibition; P30305+P24941; HTRF CDC25B-CDK2/CyclinA binding, anti-His/anti-Flag; active compounds read high; z-score (no concentration beside the values); 94,000 tested, 0.72% active; AID 1259370;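 note: score is relative to mean and SD of negative controls; strong numbers were not always called active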
Starred values were filed as active, the others as inactive; . = not tested or not shown; & = joins results of further samples.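 Rule for the calls: active = z-score from 3 up in half or more of its runs; inactive = the rest.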

compound	HIV TAR-Tat	CDC25B CDK2 inh
Cc1nc2sccn2c(=O)c1S(=O)(=O)N1CCN(Cc2ccccc2)CC1	-3.8	.
Cc1ccc(C)c(C(=O)CC2(O)C(=O)N(CCc3ccccc3)c3ccccc32)c1 (stereo not drawn)	.	-0.15
Cc1ccc(NC(=O)CSc2nc3c(cc2C#N)CCC3)c(C)c1	-0.91	-3.4
CCCCN1C(C(=O)c2ccccc2)=C(OC(=O)CC)c2ccccc2S1(=O)=O	2	-1.8
Cc1csc2nc(CSc3n[nH]c(-c4ccccc4F)n3)cc(=O)n12	0.29	.
CCOC(=O)Cc1c(C)nc2c(-c3ccc(Cl)cc3)c(C)nn2c1C	.	-3
C#CCN1C(=O)C(O)(CC(=O)c2ccc(C)cc2C)c2ccccc21 (stereo not drawn)	1.7	-0.4
CC(C)Nc1cc(N2CCOCC2)c2noc3c2c1C(=O)c1ccccc1-3	6.2*	1.9
O=c1c(C(F)(F)F)cccn1Cc1cc(Cl)cc(Cl)c1	.	1.6
CCCCN1C(=O)c2cc(C(=O)NCCC)nn2CC1(C)C(=O)NC1CCCC1 (stereo not drawn)	-0.2	.
CCCn1cc(S(=O)(=O)c2ccc(Cl)cc2)c(=O)c2cc(OCC)ccc21	0.79	-0.42
COc1cc(NC(=O)COc2ccc(-n3cnnn3)cc2)c(OC)cc1Cl	4.6*	-8.2
Cc1noc2ncnc(N3CCCC(C(=O)NCCN4CCOCC4)C3)c12 (stereo not drawn)	1.3	.
CC(C)S[C@@H]1O[C@H](CO)[C@@H](O)[C@H](O)[C@H]1O	.	-1.5
COc1cccc(C2CC(=O)Nc3c2c(C)nn3-c2ccc3nnc(C)n3n2)c1OCc1ccccc1 (stereo not drawn)	1.5	.
CCN(c1ccccc1)S(=O)(=O)c1ccc(N2CCCCS2(=O)=O)cc1	-1.5	.
O=C(O)C1Cc2c([nH]c3ccccc23)C(c2ccccc2)N1 (stereo not drawn)	.	0.74
Nc1c(-c2nc(-c3ccc4c(c3)OCO4)cs2)c2ccccn2c1C(=O)c1ccc2c(c1)OCO2	-2.8	-0.06
Oc1ccc(-c2ccccc2)cc1Br	1.7	-1.3
CCOC(=O)c1ccc(N2C(=O)c3n[nH]c(-c4ccco4)c3C2c2ccc(CC)cc2)cc1 (stereo not drawn)	-6.7	.
CCn1cc(S(=O)(=O)c2cc(C)cc(C)c2)c(=O)c2cc(F)c(N3CCCCC3)cc21	19	.
CN(C)c1ccc(C(=O)c2ccccc2C(=O)O)c(O)c1	0.16	-0.68
NS(=O)(=O)c1cc2c(cc1Cl)NC(C1CC3C=CC1C3)NS2(=O)=O (stereo not drawn)	.	0.49
CCCN1CCN(S(=O)(=O)c2[nH]ncc2C(=O)OCC)CC1	0.83	.
Cc1nn(-c2ccc(N3CCCC3)nn2)c(C)c1CCC(=O)N1CCCC1	1.6	.
CSc1cc(C(C)(C)C)[nH]n1	.	-1.4
Cn1c(=O)c2c(-c3cccc4ccccc34)c(NCc3ccccc3)oc2n(C)c1=O	-0.36	.
O=C(CCCc1nc(-c2ccccn2)no1)Nc1ccccc1F	1.2	-0.02
CC(Sc1nnc(-c2cccnc2)o1)C(=O)O (stereo not drawn)	-0.31	-1.6
O=C(Nc1ccc(Cl)cc1)Nc1ccccn1	-0.03	-0.99
CC(C)Cn1cc(NC(=O)NC(C)c2ccccc2)c2ccccc2c1=O (stereo not drawn)	2.5	.
COc1ccccc1-c1cc(N)n[nH]1	-0.76	-0.71
O=C1c2ccccc2-c2nc3ncnn3c(-c3ccc4c(c3)OCO4)c21	1.1	-0.77
Cc1nn(C)c(COC(=O)Nc2ccc(Cl)cc2)c1[N+](=O)[O-]	.	0.45
CCc1ccc(OCCSc2nc3ccccc3n2CCO)cc1	0.51	0.32
O=C(O)/C=C/C(=O)N1CCN(c2ncccc2C(F)(F)F)CC1	.	-0.57
O=C(NC1COc2ccccc2C1)N1CCC(Cc2ccccc2)CC1 (stereo not drawn)	1.2	.
CC1=C(C(=O)Nc2cc(C(=O)NC3CC3)ccc2C)SCCO1	0.21	.
COc1cccc(-c2nnc3n2N=C(c2ccc(C)c(C)c2)CS3)c1	1.1	.
COc1ccc(C(=O)CC2(O)C(=O)Nc3ccc(C)cc32)c(OC)c1 (stereo not drawn)	.	1.6
COC(=O)c1sc(=S)n(-c2ccc(OC)cc2OC)c1N	1.6	.
O=C1CC(c2ccccc2)CC2=C1C(c1ccco1)n1ncnc1N2 (stereo not drawn)	-0.42	-0.58
O=C(NCCC1=CCCCC1)C1CCN(c2ncnc3c2nc2n3CCCCC2)CC1	1.3	.
CCCOC(=O)c1ccc(-n2nnc3c(sc4nc(C)ccc43)c2=O)cc1	0.6	-0.18
CCC12CN(C(C)=O)CC(CC)(CN(C(C)=O)C1)C2=O	.	-2.3
CCN(CC)CCCNC(=O)Cn1cc2c(n1)CCC(C)C2 (stereo not drawn)	.	1.1
C=CCN1C=C(OC(=O)c2ccco2)c2ccccc2S1(=O)=O	2.6	-0.98
CCC(=O)N1CCc2cc(S(=O)(=O)CCC(=O)N3CCN(c4ncccn4)CC3)ccc21	.	-1.3
O=S(=O)(Cc1ccccc1)N1CCC(Oc2ccc(-n3cnnn3)cc2)CC1	-0.72	-0.97
Cc1n[nH]c(=O)c2noc(C)c12	.	-2.1
O=C(NCCn1cnc2cc(C(=O)N3CCCC3)ccc21)Nc1ccc(Br)cc1F	-0.63	.
Cn1c(SCc2ccc(F)c3ccccc23)nc2ccccc2c1=O	.	-1.3
CC(C)(C)OC(=O)N1CCC(CNC(=O)c2cccs2)CC1	.	-3.3
CCc1ccc(-n2nnc(-c3nc(-c4ccc(Br)cc4)no3)c2N)cc1	-1.4	.
COc1ccc(-c2cn3cccnc3n2)cc1NS(=O)(=O)c1ccc(F)cc1	.	-0.74
COc1ccc(C2C=C(C(=O)O)Nc3nnnn32)cc1Cl (stereo not drawn)	1.5	.
O=C(CCSc1nc(-c2ccc3c(c2)OCO3)cc(C(F)(F)F)n1)N1CCCCC1	3.8	-0.38
CC1CN(C(=O)CCC(=O)NC2CCCC(C)C2C)c2cc(Cl)ccc2O1 (stereo not drawn)	0.34	-1.9
CCN(CC)S(=O)(=O)c1ccc2c(c1)CC(C(=O)NC1CCCCC1)N2C(C)=O (stereo not drawn)	1.1	.
Cc1ccc(Cl)cc1NS(=O)(=O)c1ccc(-c2n[nH]c(C)c2C)s1	-0.77	.

Following part.
compound	HIV TAR-Tat	CDC25B CDK2 inh
Cc1ccc(C(=O)Nc2nn(C)c3cccc(F)c23)cc1	.	-1.2
Cc1cc(NS(=O)(=O)N2CCCCC2)no1	1	-1.7
Cc1ccc(S(=O)(=O)N2CCN(C(=O)CSc3nnnn3C)C2)cc1	.	-1.1
COc1ccc(-c2csc3nc(-c4ccccc4)oc(=O)c23)cc1OC	4.2	0.37
Cc1cc(-c2ccc(C)c(S(=O)(=O)N3CCC(c4ccccc4)C3)c2)on1 (stereo not drawn)	1.3	.
Cc1nn(-c2ccccc2)c2nc(C3CC3)cc(C(=O)Nc3ccc4c(c3)OCO4)c12	-6.2	.
NC(=O)C1CC(=O)N(c2ccc(OCC(=O)Nc3ccc(F)cc3)cc2)C1 (stereo not drawn)	-1.1	-0.56
O=C(NNC(=O)c1csc(CS(=O)(=O)c2ccc(Cl)cc2)n1)c1ccc(Cl)cc1	.	-0.82
CCCc1ccc(S(=O)(=O)Nc2ccc3c(c2)N(S(=O)(=O)CCC)CCC3)cc1	0.87	.
O=C(O)c1ccccc1O	0.99	.
O=c1c2ccccc2c(-c2cccs2)nn1-c1ccccc1	-0.8	-0.97
Cc1ccc(NS(=O)(=O)C2CCS(=O)(=O)C2)cc1Cl (stereo not drawn)	1.6	-1.2
O=C(O)C(Cc1ccccc1)N1C(=O)C2C3C=CC(C4CC34)C2C1=O (stereo not drawn)	.	-1.2
CC1CC(C)N(C(=O)C2=CC(c3ccco3)=NS(=O)(=O)N2C)C(C)C1 (stereo not drawn)	1.9	-0.17
CCOC(=O)N1CCN(c2c(N(C)C3CCCCC3)c(=O)c2=O)CC1	0.27	-2.1
COc1ccc(CNCc2ccc(OCC(O)c3ccc4c(c3)n(C)c(=O)n4C)cc2)cc1 (stereo not drawn)	-0.65	-0.27
O=C(Nc1ccc([N+](=O)[O-])cc1)Nc1csc(-c2cccnc2)n1	.	0.21
O=C(Nc1ccc(Br)cc1F)c1cnc2sccn2c1=O	1.9	-4.3
O=C(O)CCc1nn2c(=O)c3ccccc3nc2s1	2.2	-3.4
N#Cc1ccc(N2CCN(C(=O)c3ccco3)CC2)cc1	.	-1.6
CCCCCCCC/C=C\CCCCCCCC(N)=O	-6	.
Cc1ncc(-c2ccc(C)c(S(=O)(=O)Nc3ccc(C)c(F)c3)c2)o1	0.92	.
CCOC(=O)c1ccc2c(c1)NC(=O)C1CCCN21 (stereo not drawn)	0.9	.
CCCC12CN3CC(C)(CN(C1)C3c1ccccc1Cl)C2=O (stereo not drawn)	.	-0.44
CNCC[C@@H](Oc1ccccc1C)c1ccccc1	1.8	.
O=C(C1CCN(c2nc3cccnc3s2)CC1)N1CCC(N2CCCCC2)CC1	-0.12	.
O=C(C1CCN(c2ccc(-c3cccs3)nn2)CC1)N1CCN(C2CCCC2)CC1	1	.
CC1=C(c2ccc(C)c(C)c2)S(=O)(=O)NC1=NCCc1ccccc1	0.29	-3.6
c1ccc(CCc2nn3c(COc4ccccc4)nnc3s2)cc1	0.15	0.12
O=S(=O)(c1ccccc1)N1CCN(Cc2ccccn2)CC1	-1.3	-0.2
COc1ccc(C2c3c(oc4ccc(C)cc4c3=O)C(=O)N2Cc2ccc3c(c2)OCO3)cc1OC (stereo not drawn)	0.15	0.4
CC(C)(C)c1csc(-c2ccc(/C=C(\C#N)S(C)(=O)=O)cc2)n1	.	-3
O=S1(=O)CS(=O)(=O)Oc2ccccc2O1	.	0.17
CCN(CC)S(=O)(=O)c1ccc2c(c1)CC(C(=O)N1CCCCC1)N2C(C)=O (stereo not drawn)	1.3	.
O=S(=O)(Nc1ccc(OCc2ccccc2)cc1)c1ccc2c(c1)OCCO2	-0.12	-1.7
O=C(CN1C(=O)c2ccccc2S1(=O)=O)NCCSc1ccc(Cl)cc1	0.96	0.61
CC1CC(=O)Nc2ccccc2N1C(=O)Oc1ccccc1 (stereo not drawn)	-1.2	-1.4
O=C(Nc1ccc(O)c(-c2nc3ccccc3s2)c1)c1cccc(Cl)c1Cl	.	-3.4
COCCNC(=O)C1CCCN1c1nnc(N2CCCC2=O)s1 (stereo not drawn)	2	-2.7
CCOc1ccccc1Nc1nc2ccccc2c2nnc(CC)n12	1.6	-0.17
CCc1cc2c3c([nH]c2cc1S(=O)(=O)Nc1ccc(F)cc1F)CCCC3=O	0.42	.
Cc1ccc2c(C)nc(Nc3nc(C)c(CCC(C)C)c(=O)[nH]3)nc2c1	0.26	3.8
CN1CCN(CCCN2c3ccccc3Sc3ccc(Cl)cc32)CC1	1.1&-0.33	-2.2
Cn1c(SCC(=O)c2ccc3c(c2)OCCCO3)nnc1-c1ccc2c(c1)OCCCO2	1.5	.
Cc1c(C(=O)NCCCN2CCC(C)CC2)sc2nc3n(c(=O)c12)CCCCC3	0.26	.
COC(=O)c1ccc(C2Oc3ccccc3C3=C2C(c2ccc(F)cc2)n2ncnc2N3)cc1 (stereo not drawn)	.	-2
CC(C)C(=O)Nc1ccc(-c2ccccc2)cc1	.	-1.1
O=C1CC(c2ccccc2Cl)c2ccc3c(O)cccc3c2N1 (stereo not drawn)	-2.2	2.3
O=C(NCC1CCCO1)Nc1cccc(Cl)c1 (stereo not drawn)	-0.3	-1.5
S=c1nc(-c2ccccc2)[nH]c2c1Cc1ccccc1O2	-1.8	-1.3
O=C(O)c1ccccc1C(=O)c1ccc(Sc2ccccc2)c([N+](=O)[O-])c1	.	0.25
COC(=O)c1nc(C)n(-c2ccc(Cl)cc2)n1	-0.1	-0.24
